RecA splice inh = inhibitors of M. tuberculosis RecA intein splicing; 0.75% of 290,000 active; AID 2221; cell-free RecA intein splicing, fluorescence; inhibition, %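 (about 9 µM by stock and volumes)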; in the data active = inhibition above about 30%; inconclusive = no clear call, values can overlap the other calls;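 note: 0% = vehicle wells and 100% = reference inhibitor control wells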
Target sequence (P9WHJ3 whole entry, looked up, canonical isoform): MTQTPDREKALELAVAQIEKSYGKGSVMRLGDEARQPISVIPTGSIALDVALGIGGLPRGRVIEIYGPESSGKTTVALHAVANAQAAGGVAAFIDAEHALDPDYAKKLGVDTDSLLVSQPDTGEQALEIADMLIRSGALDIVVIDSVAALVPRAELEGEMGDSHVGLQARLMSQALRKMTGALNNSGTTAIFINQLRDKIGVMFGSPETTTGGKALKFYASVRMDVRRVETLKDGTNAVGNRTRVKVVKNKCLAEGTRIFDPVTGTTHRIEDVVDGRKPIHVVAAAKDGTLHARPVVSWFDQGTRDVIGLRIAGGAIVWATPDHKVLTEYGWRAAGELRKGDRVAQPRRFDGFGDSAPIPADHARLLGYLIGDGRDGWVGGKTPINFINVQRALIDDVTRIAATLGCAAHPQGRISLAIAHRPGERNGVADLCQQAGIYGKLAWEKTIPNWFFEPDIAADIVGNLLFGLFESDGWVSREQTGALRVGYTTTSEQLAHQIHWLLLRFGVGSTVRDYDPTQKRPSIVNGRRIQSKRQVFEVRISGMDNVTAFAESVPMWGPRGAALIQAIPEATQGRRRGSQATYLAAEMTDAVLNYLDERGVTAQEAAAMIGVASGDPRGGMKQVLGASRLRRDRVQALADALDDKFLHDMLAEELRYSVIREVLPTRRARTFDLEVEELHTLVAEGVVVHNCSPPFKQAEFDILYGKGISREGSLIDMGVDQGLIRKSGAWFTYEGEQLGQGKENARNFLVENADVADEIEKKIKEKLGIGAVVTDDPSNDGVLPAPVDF
Arbovirus anti = arbovirus infection inhibition | arbovirus infection cell-based antiviral screen | inhibition, % at 10 µM | 0.37% of 200,000 active;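 active = inhibition from about 30%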;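 note: bluetongue infection of BSR cells; cell survival read as ATP light after 72 h; 0% = infected wells without compound and 100% = uninfected wells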
YopH PTP inh = inhibitors of Yersinia enterocolitica YopH tyrosine phosphatase; fluorescence Ex485/Em525; inhibition, %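 (about 10 µM by stock and volumes)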; 0.16% of 140,000 active;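 active = inhibition of 50% or more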;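 note: controls were vehicle for no effect and minimum signal wells for full effect; inactives centre near -20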
Mtb betalactam = beta-lactam sensitization of Mtb H37Rv. M. tuberculosis H37Rv growth with meropenem, percent inhibition; hits of this screen are not shown here. inhibition, % at 25 µM. 0.27% of 330,000 active;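 active = about 74% or more and at least 40 points above the plate without the antibiotic, then above 30% in a dose series; inconclusive = first-round hits that could not be retested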;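 note: growth measured after seven days incubation then overnight dye step; 0% = bacteria only wells and 100% = bacteria with antibiotic; twin plates without the antibiotic show which effects depend on it; some results filed as inactive read as strong as hits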
Mtb H37Rv = M. tuberculosis H37Rv growth inhibitors, H37Rv strain (AID 1626) | M. tuberculosis H37Rv growth inhibition; higher % means a stronger effect | inhibition, % at 10 µM; hits with a dose series show IC50 in µM | 0.95% of 220,000 active;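 active = confirmed in a dose series; inconclusive = inhibition above 80% but not taken into the dose series; inactive = below 80% or under 30% at every dose of the series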;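 note: bacteria incubated seven days before Alamar blue readout; 0% = bacteria only wells and 100% = bacteria with antibiotic wells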
Arbovirus anti repeat = recorded beside Arbovirus anti, whose call it bears; inhibition, %; measured here: 10K subset replicate screen; many hits read low in the repeat;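 first of two repeat runs on a subset; 0% = infected and 100% = uninfected wells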
Starred values were filed as active, the others as inactive; ? = inconclusive; nt = not tested or not shown. This is a subset; rates above refer to the full screens.

SMILES	RecA splice inh	Arbovirus anti	YopH PTP inh	Mtb betalactam	Mtb H37Rv	others
CCN(C(=O)CSc1ncccc1C(=O)Oc1cccc([N+](=O)[O-])c1)c1cccc(C)c1	33*	-3	-23	-4	-1%
Cc1ccc(NC(=O)CSCC(=O)Nc2cc(Cl)ccc2N2CCN(C)CC2)cc1	1.6	nt	nt	-5	nt
O=C1CCCC/C1=N\Nc1ccc(C2CCCCC2)cc1	nt	nt	nt	14	17%
Cc1ccc(OCC(=O)NNC(=O)CSc2nnc(-c3ccc(C)cc3)n2C)cc1	-1.8	-3	-18	3	3%
O=C(/C=C/c1cccs1)N1CCN(Cc2ccc3c(c2)OCO3)CC1	5.1	1	-20	32	?
CC1(C)C/C(=N\NC(=S)Nc2ccccc2F)c2cc(O)ccc2O1	-36	14	nt	24	3%
COc1cccc(CNCCc2ccc(F)cc2)c1	0.2	nt	nt	-1	nt
O=C(Cn1cnc2c(cnn2-c2ccc(F)cc2)c1=O)N1CCN(c2ccccc2)CC1	0.8	1	-10	nt	-11%
C[C@H]1COc2c(C3(N)CC3)c(F)cc3c(=O)c(C(=O)O)cn1c23	23	0	nt	100	?
O=C(CSc1nnc(-c2ccco2)o1)Nc1ccccc1Cl	-2.7	nt	nt	-3	nt
CCCCCCCCCCn1c2c(c(=N)c3c1CCC3)CCC2	32*	-26	-13	100	2.4µM*
Cc1ccc(C(=O)COC(=O)CNC(=O)c2cccs2)cc1	2.3	4	-10	-10	0%
N#CC(C(=O)C12CC3CC(CC(C3)C1)C2)c1nc2ccccc2[nH]1 (stereo not drawn)	-5.7	-6	0	100	9.8µM*
CCCS(=O)(=O)N1CCC(C(=O)NCc2ccc3c(c2)OCO3)CC1	1.7	16	nt	12	2%
CS(=O)(=O)N1CCC(C(=O)NCc2ccc(Cl)cc2)CC1	-1.5	nt	nt	-5	-6%
CCC(C)NC(=S)Nc1ccc(F)cc1 (stereo not drawn)	-0.1	nt	nt	-14	0%
COc1nc(Nc2ccc([N+](=O)[O-])cc2)nc(NC2CCCCC2)n1	-3.6	-6	nt	78	10%
CCOC(=O)C1CCN(C(=O)COC(=O)c2nn(C)c(=O)c3ccccc23)CC1	1.5	nt	nt	-10	nt
O=C(CSCc1ccc(Br)cc1)Nc1ccccc1C(=O)N1CCOCC1	-3.9	nt	nt	-14	nt
Cc1ccc(C(=O)N2C(=S)C(c3ccc(F)cc3)=NC23CCN(C)CC3)cc1	2.6	1	77*	1	3%
Clc1ccc(-c2csc(N/N=C/c3ccc4c(c3)OCO4)n2)cc1	-2.2	16	-8	3	49%
O=S(=O)(Nc1ccncc1)c1ccc(Cl)cc1	2.6	3	-14	-9	0%
COC/C=C1\CN2C3C[C@@H]1[C@H]1COC4=Nc5cc(OC)c(OC)c(OC)c5[C@@]43C[C@@H]12	-2.1	nt	nt	-3	6%
CN1C(=S)SC(C)(NO)C1(C)C (stereo not drawn)	-1.9	3	-34	-7	0%
CCc1nc(SCC(=O)N2CCC(C)CC2)c2c(=O)n(C)c(=O)n(C)c2n1	0.3	-6	nt	-1	3%
COc1cc2[nH]c(=O)n(Cc3ccccc3Cl)c(=O)c2cc1OC	-1.3	4	-8	-3	-3%
COc1ccc(S(=O)(=O)N2CCCN(CCC(=O)Nc3cccc(C(F)(F)F)c3)CC2)cc1	nt	8	-15	46	nt
CSCCC(NC(=O)c1ccco1)C(=O)OCC(=O)Nc1sccc1C#N (stereo not drawn)	-2.1	5	-16	?	nt
CC1(C)NC(=O)N(CC(O)COc2ccccc2[N+](=O)[O-])C1=O (stereo not drawn)	-2.7	3	nt	2	-1%
CCCCC[C@H](O)/C=C/[C@@H]1[C@@H](C/C=C\CCCC(=O)O)[C@H]2CO[C@@H]1C2	8.1	5	-52	1	1%
Cc1cc(C)n2nc(C(=O)N3CCOCC3)nc2n1	0.7	4	-53	1	-9%
Cc1nn(-c2ccccc2)c(C)c1/C=N/NC(=O)CSc1nnc(SCc2ccccc2Cl)s1	1.1	-16	-19	-5	3%
COP(=O)(OC)C(NC(=O)Nc1ccccc1)c1ccccc1 (stereo not drawn)	0.7	nt	nt	-8	-2%
COc1ccc(S(=O)(=O)N2CCCCC2)cc1NC(=O)c1ccc(=O)[nH]c1	-5.3	4	nt	0	1%
COc1ccccc1NC(=S)NC(NC(=O)CC(C)C)C(Cl)(Cl)Cl (stereo not drawn)	0.2	0	nt	-2	-7%
Nc1nnnn1/N=C/C=C/c1ccccc1	-2.4	-3	-27	-2	-1%
CC(C)NC(=O)c1onc(CSc2ccc(F)c(F)c2)c1C(=O)O	-2.5	3	1	99	3%
Cc1sc2ncnc(SCC(=O)Nc3nc(-c4ccc(F)c(F)c4)cs3)c2c1C	9.4	-9	nt	-8	16%
COCCn1c(C)cc(C(=O)CSc2ncnc3sc4c(c23)CCC4)c1C	1.1	19	-25	nt	-3%
Cc1ccc(CNC(=O)C2CC(=O)N(C3CCCCCCC3)C2)cc1 (stereo not drawn)	0.5	2	-24	-7	2%
COc1ccc(-c2nnc(SCC(=O)c3ccc[nH]3)n2-c2ccccc2)cc1	2.7	-3	-30	-2	7%
Cc1cc(-c2ccccc2)c2nncn2n1	-2.8	15	-7	-4	-5%
CCOc1ccccc1C1CC(=O)Nc2cc(OC)c(OC)c(OC)c21 (stereo not drawn)	0.3	-2	21	-2	0%
COc1ccc(OC)c(C(=O)CSc2nc3ccccc3n2CC(=O)NC(C)(C)C)c1	nt	3	-6	-16	-13%
O=c1[nH]cnc(O)c1C(c1ccc([N+](=O)[O-])cc1)c1c(O)nc[nH]c1=O	0.3	nt	nt	2	nt

Reprinted from the entries so far for reference:
SMILES	RecA splice inh	Arbovirus anti	YopH PTP inh	Mtb betalactam	Mtb H37Rv	others
COc1ccccc1NC(=S)NC(NC(=O)CC(C)C)C(Cl)(Cl)Cl (stereo not drawn)	0.2	0	nt	-2	-7%
Nc1nnnn1/N=C/C=C/c1ccccc1	-2.4	-3	-27	-2	-1%

(continued)
SMILES	RecA splice inh	Arbovirus anti	YopH PTP inh	Mtb betalactam	Mtb H37Rv	others
Cc1cc(C)c(NC(=O)/C(=C/c2ccco2)c2ccccc2)c(C)c1	11	-14	-14	5	-11%
COc1ccccc1Oc1cc(C#N)c(C#N)cc1-n1nnc2ccccc21	42*	3	-54	11	nt
CCOC(=O)C1=C(C)OC(N)=C(C#N)C1c1ccoc1 (stereo not drawn)	1.1	2	-9	-1	-7%
CCCc1nc2ccccc2c(C(=O)OCC(=O)Nc2c(C)n(C)n(-c3ccccc3)c2=O)c1CC	-1.2	0	-11	1	-4%
CSc1ccc(CCNC(=O)CN2C(=O)CCSc3ccccc32)cc1	-0.7	nt	nt	7	nt
c1ccc(CCNc2nc(-c3ccncc3)nc3ccccc23)cc1	0.9	nt	nt	1	7%
CCCCn1c(O)c(C(C)=NCC2CCCO2)c(=O)[nH]c1=O (stereo not drawn)	0.1	5	-15	7	-5%
COC(=O)CN(c1ccc(F)cc1)S(=O)(=O)c1ccc2c(c1)OCCO2	nt	8	-20	-12	7%
CC(C)Cc1nnc(NC(=O)CCC(=O)N2CCN(c3ccccc3)CC2)s1	-1.6	nt	nt	1	nt
CCNC(=S)N(Cc1cc2c(C)ccc(C)c2[nH]c1=O)C1CCCC1	-2.2	5	nt	6	-5%
CN(C)/C=C/C(=O)c1ccncc1	2.2	2	nt	-3	3%
O=C(NC1CCCCC1)N1C[C@H]2C[C@@H](C1)c1cccc(=O)n1C2	0.4	nt	nt	5	nt
CC1CCC/C(=C\Nc2ccc(C(=O)O)c(O)c2)C1=O (stereo not drawn)	-0.5	nt	nt	98	75%
O=C(CNS(=O)(=O)c1ccc2ccccc2c1)OCc1nnc(-c2ccccc2)o1	3.2	1	-17	9	-1%
Cc1ccc(/C=N/NC(=O)CSc2nc3ccccc3[nH]2)o1	-6.0	nt	nt	4	nt

Among those listed so far, these contain a nitro group on carbon:
SMILES	RecA splice inh	Arbovirus anti	YopH PTP inh	Mtb betalactam	Mtb H37Rv	others
CCN(C(=O)CSc1ncccc1C(=O)Oc1cccc([N+](=O)[O-])c1)c1cccc(C)c1	33*	-3	-23	-4	-1%
COc1nc(Nc2ccc([N+](=O)[O-])cc2)nc(NC2CCCCC2)n1	-3.6	-6	nt	78	10%
CC1(C)NC(=O)N(CC(O)COc2ccccc2[N+](=O)[O-])C1=O (stereo not drawn)	-2.7	3	nt	2	-1%
O=c1[nH]cnc(O)c1C(c1ccc([N+](=O)[O-])cc1)c1c(O)nc[nH]c1=O	0.3	nt	nt	2	nt

3 entries out of the list, ordered by SMILES length, lowest first.
SMILES	RecA splice inh	Arbovirus anti	YopH PTP inh	Mtb betalactam	Mtb H37Rv	others
Nc1nnnn1/N=C/C=C/c1ccccc1	-2.4	-3	-27	-2	-1%
CCOC(=O)C1=C(C)OC(N)=C(C#N)C1c1ccoc1 (stereo not drawn)	1.1	2	-9	-1	-7%
CCCc1nc2ccccc2c(C(=O)OCC(=O)Nc2c(C)n(C)n(-c3ccccc3)c2=O)c1CC	-1.2	0	-11	1	-4%

Further compounds:
SMILES	RecA splice inh	Arbovirus anti	YopH PTP inh	Mtb betalactam	Mtb H37Rv	others
Cc1nc2sc(C(N)=O)c(N)c2c2c1CCCC2	-8.3	nt	nt	0	1%
COCCSc1ccccc1C(=O)N1CCOCC1	-1.8	0	-22	1	-5%
CCOC(=O)c1sc(=S)n(-c2ccccc2)c1N	-5.2	-5	34	-3	2%
CCc1nnc(SCC(=O)Nc2nc(C)c(C(=O)N(C)C)s2)n1CC	-0.5	nt	nt	-5	nt
Cc1ccccc1-n1c(O)c(C=NCCN2CCOCC2)c(=O)[nH]c1=O	0.0	-2	-5	0	-11%
CCO/C=C1/C(=O)N(C(C)=O)c2ccccc21	-51	7	-1	-14	-5%
Cc1nnc(Sc2nc3c(c(=O)[nH]c(=O)n3C)n2CCCc2ccccc2)s1	nt	13	-17	nt	15%	Arbovirus anti repeat=1
Cc1nnc(NC(=O)c2cccc(S(=O)(=O)N3CCN(C)CC3)c2)s1	0.0	nt	nt	-1	nt
O=C1NCCCc2nonc21	-0.3	6	-43	5	-1%
COc1ccc(C2(C(=O)NCc3ccco3)CCCC2)cc1OC	-0.8	5	-7	5	-5%
CCCCC(O)CN1CCC(c2ccccc2)CC1 (stereo not drawn)	-1.5	-6	-21	2	-4%
CSc1nn(-c2ccc(C(=O)OCC(=O)NC(=O)NC(C)C)cc2)c(=S)s1	0.3	3	-32	99	13%
COc1cccc(CNC(=O)C2CCCN(c3nc4ccccc4o3)C2)c1 (stereo not drawn)	0.3	-6	-37	-4	8%
CCN(c1ccccc1)S(=O)(=O)c1ccc(C(=O)NCCCn2ccnc2)cc1	-1.4	10	nt	3	0%
O=[N+]([O-])c1ccc(Sc2ccccc2)nc1	0.6	1	-11	nt	1%
COc1ccc(Nc2nc(-c3cccs3)nc3ccccc23)cc1S(=O)(=O)N1CCOCC1	6.5	nt	nt	1	nt
COc1cc(/C=N/NC(=O)c2cccc(S(=O)(=O)N3CCCC3)c2)cc(OC)c1O	-4.9	nt	nt	-1	nt
COc1ccc(N2CCN(C(=O)Cn3cnc4c3c(=O)n(C)c(=O)n4C)CC2)cc1	-2.3	3	nt	-2	0%

Screening data from PubChem BioAssay.
